CSC inhib = blocks cancer stem cells | cancer stem cell-like cells viability, luminescence | inhibition, % at 7.5 µM | 1.1% of 300,000 active;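 active = mean at 75% or more and at least half the replicates too; inconclusive = mean and replicates disagree; tested in HMLE shEcad cells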;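 also: 0% = median of negative and 100% = median of positive control wells; the first replicate is given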
eIF4H inh = inhibitors of RNA binding by human eIF4H; Q15056; eIF4H fluorescence polarization binding assay; inhibition, % at 35 µM; 0.94% of 290,000 active; AID 2012;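 active = 50% or more with normal probe brightness, or confirmed in later tests; inconclusive = above 50% with abnormal brightness, or retests that disagree; inactive = below 50% or failed in later tests; about a fifth of its hits are not listed in these tables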;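 also: calls also rest on retests at 20 µM and on dose response follow-up; 0% = protein and probe with vehicle and 100% = probe without protein; strong numbers were not always called active; many hits fall short of the cut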
MT1-MMP act inh = MT1-MMP (human) activation inhibition; GFP/RFP ratio change, % at 20 µM; P50281; HT1080 RFP-PRO-GFP cells, GFP/RFP ratio fluorescence, overnight; percent of plate control window, DMSO zero; AID 651647; 0.061% of 360,000 active;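 active = GFP/RFP ratio change of at least 30% with cell ATP level not reduced by more than half and red fluorescence within 50% of control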; also: strong numbers were not always called active
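system = RFP-PRO-GFP reporter HT1080 cells | dosing = 20 µM single dose, 1% DMSO | timing = overnight cell settling, then overnight compound exposure, 37 °C, 5% CO2 | read-out basis = GFP/RFP fluorescence ratio | controls = DMSO and RFP-L50D-GFP cell wells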
Rce1 inhib = inhibitors of yeast Ras-converting enzyme; 0.27% of 290,000 active; calls only; yeast membranes, quenched prenylated peptide cleavage fluorescence;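 active = fall in fluorescence gain of 50% or more versus controls, with final raw signal at or below 3038400; inconclusive = same 50% fall but final raw signal above 3038400; inactive = fall in fluorescence gain under 50%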;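 also: plate controls were neutral control wells for no effect and wells lacking membranes for full effect; tested at 10 µM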
Target sequence (Q03530 whole entry, looked up): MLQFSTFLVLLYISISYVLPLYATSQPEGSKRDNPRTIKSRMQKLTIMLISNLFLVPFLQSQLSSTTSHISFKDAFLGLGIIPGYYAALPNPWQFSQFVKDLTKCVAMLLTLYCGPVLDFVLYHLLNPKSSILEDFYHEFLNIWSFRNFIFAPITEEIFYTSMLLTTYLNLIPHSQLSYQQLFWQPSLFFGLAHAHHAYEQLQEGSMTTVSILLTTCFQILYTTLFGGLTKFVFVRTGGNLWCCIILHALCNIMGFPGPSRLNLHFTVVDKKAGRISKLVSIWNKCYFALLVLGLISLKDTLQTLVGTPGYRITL
HIV Env fusion = inhibitors of HIV Env-mediated cell fusion. HeLa-JRFL Env/CEM21 cell fusion, luciferase. inhibition, % at 12.3 µM. 1.1% of 360,000 active. AID 651610;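 active = mean replicate inhibition score of at least 50 and every replicate individually at or above 50; inconclusive = only one of the two criteria met; inactive = mean below 50 and not all replicates reaching 50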;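 also: 0% = plate neutral controls and 100% = maraviroc near 300 nM; one replicate is shown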
PABP polyA inh = PABP-poly(A) binding inhibition; inhibition, % at 35 µM; 1% of 290,000 active; AID 2014; PABP-poly(A) RNA binding, fluorescence polarization;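 active = 50% or more with normal probe brightness, or confirmed in later tests; inconclusive = above 50% with abnormal brightness, or retests that disagree; inactive = below 50% or failed in later tests; about a fifth of its hits are not listed in these tables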;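 also: calls also rest on retests at 20 µM and on dose response follow-up; controls were probe without protein and protein plus probe with vehicle; some compounds called inactive have numbers as strong as hits; many hits fall short of the cut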
Target sequence (P11940 whole entry, looked up): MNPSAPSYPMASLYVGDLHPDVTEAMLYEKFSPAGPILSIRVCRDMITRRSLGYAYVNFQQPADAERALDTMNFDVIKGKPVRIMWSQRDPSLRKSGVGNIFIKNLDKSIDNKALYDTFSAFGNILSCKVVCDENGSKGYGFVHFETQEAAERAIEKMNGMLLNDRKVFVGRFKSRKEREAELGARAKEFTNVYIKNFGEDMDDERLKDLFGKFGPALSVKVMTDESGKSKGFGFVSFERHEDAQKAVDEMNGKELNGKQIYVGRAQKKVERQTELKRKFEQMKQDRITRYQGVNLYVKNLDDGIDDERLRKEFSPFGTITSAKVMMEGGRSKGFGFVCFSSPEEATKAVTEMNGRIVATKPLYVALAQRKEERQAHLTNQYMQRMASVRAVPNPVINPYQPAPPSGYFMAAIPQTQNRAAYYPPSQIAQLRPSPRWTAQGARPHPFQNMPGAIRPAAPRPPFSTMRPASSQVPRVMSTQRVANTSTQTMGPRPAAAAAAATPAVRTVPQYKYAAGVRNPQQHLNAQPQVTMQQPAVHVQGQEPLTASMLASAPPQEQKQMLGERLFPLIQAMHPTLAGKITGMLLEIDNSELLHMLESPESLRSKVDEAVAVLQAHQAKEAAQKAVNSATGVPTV
Yeast UUG start = modulators of start codon recognition fidelity in yeast; S. cerevisiae UUG-firefly luciferase reporter, luminescence/redox ratio; activity score, % at 18.7 µM; 0.13% of 350,000 active; AID 602363;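 active = replicate mean at a twofold rise or more, about +100% in these data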;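 also: firefly luciferase made from a UUG start codon reports start codon fidelity; reporter light over untreated wells divided by growth signal over untreated wells; some hits fall short of that in this replicate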
MT1-MMP act inh RFP = further read-out of MT1-MMP act inh, marked with its call; RFP signal change, %; measured here: RFP expression control read;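 0 = vehicle wells; hits needed this value within 50% of zero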
An asterisk follows results filed as active; i = inactive; ? = inconclusive; . = not tested or not shown.

SMILES	CSC inhib	eIF4H inh	MT1-MMP act inh	MT1-MMP act inh RFP	Rce1 inhib	HIV Env fusion	PABP polyA inh	Yeast UUG start
COc1ccc(Cc2nnc(NC(=O)c3ccccc3C)s2)cc1	0	-6	-4	-3	i	-36	-2	-1
Cc1ccccc1-c1cc2nc(-c3ccc([N+](=O)[O-])cc3)cc(=O)n2[nH]1	13	-1	11	2	i	13	0	.
COCCNC(=O)NC(=O)COC(=O)C12CC3CC(CC(NC(C)=O)(C3)C1)C2	3	1	4	7	i	.	-3	1
Cc1ccc(CNC(=O)C(=O)NCC2CCCN2S(=O)(=O)c2cccs2)cc1 (configuration not stated)	-16	.	2	-5	i	.	.	-12
CC(=O)c1cccc(-c2ccnc3c2CC(C(=O)N2CCN(C)CC2)O3)c1 (configuration not stated)	.	.	-2	6	.	-18	.	-8
O=S(=O)(N1CCCCC1)N1CCNCC1	-21	-14	2	0	i	.	1	-16
Cc1cc(C)nc(N/N=C/c2cccc(Cl)c2)n1	-9	-3	-4	-3	.	-19	-2	.
O=C(Nc1cccc(F)c1)C1CCN(C(=O)Cc2ccccc2)CC1	-2	1	.	.	i	.	5	-14
COc1ccc(N2CC(C(=O)Nc3nnc(SCC(=O)c4ccccc4)s3)CC2=O)cc1 (configuration not stated)	-10	7	3	3	i	.	-1	.
COc1ccc(-c2nnc(SCC(=O)c3ccc(C)o3)o2)cc1	.	0	2	-1	i	.	-16	0
CCOc1ccccc1C1C2=C(COC2=O)Nc2cc3c(cc21)OCO3 (configuration not stated)	39	-3	20	-4	i	-129	10	.
Cc1ccc(NC(=O)Cc2ccsc2)cc1S(=O)(=O)N1CCOCC1	2	.	1	1	.	11	.	-20
Cc1ccc(SC2CCN(C(=O)C3CCC(=O)N(C4CC4)C3)CC2)cc1 (configuration not stated)	-9	4	5	-9	i	-1	0	-10
CCOc1cc(OCC)cc(C(=O)NCCCN2CCOCC2)c1	.	-11	4	5	i	-11	12	-1
Cc1ccc(C(CC(=O)N2CCOCC2)c2ccco2)cc1 (configuration not stated)	-7	1	-5	-3	i	-15	-4	6
COc1cc(C2NC(=O)NC(C)=C2C(=O)OCC2CCCO2)ccc1O (configuration not stated)	-5	-3	0	2	i	.	-6	-18
Cc1ccc(CC(=S)N2CCOCC2)cc1	-8	-10	5	4	i	-11	-7	-19
COc1ccc2oc(-c3ccc(NC(=O)c4ccc(N5CCOCC5)c([N+](=O)[O-])c4)cc3)nc2c1	9	3	4	-7	i	.	-4	0
CCc1cc2c(SCC(=O)NC3CC3)ncnc2s1	-7	.	-3	0	.	-1	.	-6
COc1ccc(CN(CC(=O)NCc2ccco2)C(=O)CNS(=O)(=O)c2ccc(C)cc2)cc1	.	-9	1	3	i	-3	2	18
COCCn1c(Cc2ccccc2)nnc1SC(C)C(=O)NC1CC1 (configuration not stated)	-19	.	4	1	.	0	.	-12
Cc1cc(NC(=O)COC(=O)CSc2nc3cc(Cl)ccc3n2Cc2ccccc2)no1	-4	7	0	10	i	.	-3	-19
CCc1cccc2c(C(=O)CSc3nncn3-c3ccccc3OC)c[nH]c12	-6	1	12	2	i	-4	-10	-6
CN(CCCNC(=O)c1cccc(N2CCCC2=O)c1)c1ccccc1	-2	33	2	2	i	.	-5	.
Cc1cc(NC(=O)c2ccc3c(c2)OCO3)ccc1NC(=O)c1ccccc1	24	0	3	5	i	-3	1	3
Later entries:
SMILES	CSC inhib	eIF4H inh	MT1-MMP act inh	MT1-MMP act inh RFP	Rce1 inhib	HIV Env fusion	PABP polyA inh	Yeast UUG start
COc1ccc2cc(C3(C)NC(=O)N(CC(=O)Nc4c(C)n(C)n(-c5ccccc5)c4=O)C3=O)ccc2c1 (configuration not stated)	29	0	4	2	i	4	-5	6
NC(=O)CSc1nnc(NC(=O)C23CC4CC(CC(C4)C2)C3)s1	-14	7	3	5	i	.	-3	.
COc1ccccc1NS(=O)(=O)c1ccc2c(c1)NC(=O)C(C)S2 (configuration not stated)	2	-2	6	-9	i	-1	5	1
O=C(NC(=S)Nc1ccccc1N1CCCCC1)c1ccc(F)cc1	20	4	-2	-3	.	-1	-6	-15
COc1ccc(N2C(=O)CC(NCc3cccs3)C2=O)cc1 (configuration not stated)	-12	2	3	-4	i	4	-1	-12
Cc1ccccc1-c1noc(CCC(=O)NC2CCCCC2)n1	0	10	-2	-5	i	16	1	3
CCN1CCN(C(=O)/C(C#N)=C/c2ccc(OC(F)F)cc2)CC1	-16	-6	-1	1	i	-1	7	-10
COC(=O)CCCC1=CC2=C(c3ccccc3)C(=O)C(C)(OC(=O)C3CCCC3)C(=O)C2=CN1C(CO)CO (configuration not stated)	-7	1	7	3	i	-2	11	-5
Cc1csc(NC(=O)CCNS(=O)(=O)c2ccc3c(c2)c(=O)n(C)c(=O)n3C)n1	-9	-6	0	4	i	-32	-1	11
CCOC(=O)c1sc(C)c2c1NC(c1ccc(Cl)cc1)NC2=O (configuration not stated)	-4	0	-3	1	i	.	-4	-7
COc1ccc(C2CC(c3cccs3)=NN2C(=O)COC(=O)c2cc3ccccc3cc2O)cc1OC (configuration not stated)	0	2	0	-5	i	.	9	-15
Cc1c(C(=O)N2CCCCC2)sc(NC(=O)C23CC4CC(CC(C4)C2)C3)c1C#N	17	.	0	5	i	.	.	-11
O=C(COc1cccnc1[N+](=O)[O-])NC1CCS(=O)(=O)C1 (configuration not stated)	-7	5	1	1	i	7	17	.
CC(=O)N/N=C/c1cc(C)n(-c2ccc(Br)cc2)c1C	6	8	-2	-2	i	.	13	-8
O=C(NCCS(=O)(=O)N1CCN(c2ccc(F)cc2)CC1)C12CC3CC(CC(C3)C1)C2	14	.	1	-9	i	32	.	.
Cc1cc(C)c(NC(=O)C2=COCCO2)c(C)c1	-4	.	-1	-4	i	-10	.	11
O=C(Nc1nnc([C@@H]2O[C@H](CO)[C@@H](O)[C@H]2O)s1)Nc1cccc2c1CCCC2	.	.	1	2	.	-12	.	-2
CCCCNC(=S)N/N=C1\CCCCc2ccccc21	36	-4	-4	-3	i	1	6	.
CC(=O)CSc1nc(C(F)(F)F)cc(=O)n1-c1ccccc1	0	-10	8	5	i	6	-11	-16
COc1ccc(C2=NN(CC(=O)Nc3cc(C)ccc3C)C(=O)CC2)cc1	-9	-5	-1	-2	i	4	-2	44
C#CCNC(=O)C1=C[C@@H](c2ccc3c(c2)OCO3)[C@H](CCCO)[C@@H](OCC)O1	15	-10	10	9	i	-12	-5	-14
COc1cc2c3c([nH]c2cc1F)C(=O)NCC3	-8	.	-5	-7	i	59*	.	3
O=C(NCc1ccc2c(c1)OCO2)c1c(Cl)cccc1Cl	-9	-2	3	2	.	10	2	-71
O=C(c1ccccc1)C1C(c2ccccc2)C1[N+](=O)[O-] (configuration not stated)	-2	46	8	4	i	-6	40	-14
COc1ccccc1CNC(=O)CS(=O)(=O)c1ccccc1	-15	-5	1	1	i	12	8	-7

3 entries already listed, arranged by molar mass, ascending.
SMILES	CSC inhib	eIF4H inh	MT1-MMP act inh	MT1-MMP act inh RFP	Rce1 inhib	HIV Env fusion	PABP polyA inh	Yeast UUG start
COc1cc2c3c([nH]c2cc1F)C(=O)NCC3	-8	.	-5	-7	i	59*	.	3
CC(=O)CSc1nc(C(F)(F)F)cc(=O)n1-c1ccccc1	0	-10	8	5	i	6	-11	-16
Cc1c(C(=O)N2CCCCC2)sc(NC(=O)C23CC4CC(CC(C4)C2)C3)c1C#N	17	.	0	5	i	.	.	-11

Remaining list, next part:
SMILES	CSC inhib	eIF4H inh	MT1-MMP act inh	MT1-MMP act inh RFP	Rce1 inhib	HIV Env fusion	PABP polyA inh	Yeast UUG start
CCc1ccc(NC(=S)N2CCN(c3cccc(C(F)(F)F)c3)CC2)cc1	1	2	4	1	i	17	-12	-23
O=C(c1cc(-c2cccc(O)c2)on1)N1CCCCC1	13	-2	-6	0	i	-154	-13	-44
Cc1nc2c(C)cccn2c1/C(O)=C1\C(=O)C(=O)N(CCN2CCOCC2)C1c1cccs1 (configuration not stated)	.	9	2	6	i	-27	19	-13
N#C/C(=C\c1ccc(-c2ccccc2)o1)C(=O)Nn1cnnc1	1	47	1	6	i	-65	42	.
COc1ccc(NC(=O)C(NC(C)=O)C(=O)NCc2ccc(F)cc2)cc1 (configuration not stated)	1	-1	-4	-1	i	.	-7	-11
O=C(CCNC(=O)Cn1ccc2ccccc2c1=O)NCCC1=CCCCC1	-8	-4	-2	1	i	-4	-5	.
CN1OC[C@@H]2CN(C(=O)NC3CCCCC3)[C@H](c3ccc(N4CCCCC4)cc3)C[C@@H]21	.	.	0	3	.	3	.	13
CC(C)N=C(NC#N)SCc1ccccc1F	.	-8	-2	1	i	.	-8	13
Cc1ccc(C(=O)CSc2nnc(C(C)C)n2C)cc1C	-5	-3	4	2	i	-18	2	.
O=C(CSc1nc2ccccc2s1)NNC(=S)Nc1ccc(Cl)cc1	-9	34	4	4	i	2	-12	.
O=C(COc1coc(CN2CCN(Cc3ccccc3)CC2)cc1=O)Nc1ccccc1	-10	.	5	-1	i	0	.	-2
CCOC(=O)c1ccc(NC(=O)Cn2c(=O)oc3ccccc32)cc1	-8	1	1	-4	i	7	-15	-6
OC1CCC(Nc2ncnc3sccc23)CC1 (configuration not stated)	-12	2	-9	-5	i	19	-3	-18
O=C(O)CC/C(=N/NC(=O)CNC(=O)c1ccc2c(c1)OCCO2)c1ccccc1	19	9	-8	-1	i	4	-4	-5
CNc1oc(C)nc1S(=O)(=O)c1ccccc1	.	6	3	3	i	.	-1	2
COc1cc(OC)cc(C(=O)NC(C(=O)NCCc2ccccn2)C(C)C)c1 (configuration not stated)	-18	.	-4	2	.	-12	.	-24
COc1cc(-c2nnc3sc(Cc4ccccc4)nn23)cc(OC)c1OC	10	6	19	5	i	-8	-2	-12
Cc1cccc(C)c1NC(=O)COC(=O)C1CC1	.	.	-4	2	.	-4	.	14
O=C(NNC1=NS(=O)(=O)c2ccccc21)c1ccccc1	-2	11	2	5	i	-30	-18	-18
COc1ccc(C(C#N)N2CCC(c3ccccc3)=N2)cc1 (configuration not stated)	-18	-5	0	5	i	-21	8	183*
Cc1[nH]c2ccc(C(=O)NCc3ccccn3)cc2c1C	1	3	-2	4	i	-15	5	-13
CCc1cccc(CC)c1NC(=O)COC(=O)C1(C)CC1(Cl)Cl (configuration not stated)	-15	-6	0	4	i	-3	-18	.
C/C=C/c1ccc(OCCNCc2ccccc2)c(OC)c1	.	2	1	2	i	9	-4	20
CC1CCCCC1NS(=O)(=O)c1ccc2c(c1)CCC(=O)N2 (configuration not stated)	-14	.	5	0	.	3	.	.
Cc1ccc(-c2nn(-c3ccccc3)cc2CN(Cc2ccccc2)C(=O)c2ccco2)o1	39	2	0	-10	i	35	0	-23
COc1ccc(N2CC(C(=O)OCC(=O)c3cccc(OC)c3)CC2=O)cc1 (configuration not stated)	-5	1	-10	6	i	-4	-3	2
CCOC(=O)c1ccc(N2CC(O)=C(c3nc4ccccc4c(=O)[nH]3)C2=N)cc1	0	8	-14	5	i	.	17	-29
CCOc1cc2c3c(c1)C1(OCCO1)C(=O)N3C(C)(C)CC2C (configuration not stated)	-11	3	2	3	i	.	-2	12
Cc1ccnc(NC(=O)CSc2cc(=O)n(C)c3ccccc23)c1	?	0	0	-3	i	-344	6	-10

Entries of single compounds, quoted from the list:
CC(=O)N/N=C/c1cc(C)n(-c2ccc(Br)cc2)c1C across the screens: CSC inhib: 6; eIF4H inh: 8; MT1-MMP act inh: -2; MT1-MMP act inh RFP: -2; Rce1 inhib: i; HIV Env fusion: .; PABP polyA inh: 13; Yeast UUG start: -8
O=C(NCc1ccc2c(c1)OCO2)c1c(Cl)cccc1Cl across the screens: CSC inhib: -9; eIF4H inh: -2; MT1-MMP act inh: 3; MT1-MMP act inh RFP: 2; Rce1 inhib: .; HIV Env fusion: 10; PABP polyA inh: 2; Yeast UUG start: -71

Assay outcomes as filed in PubChem.

An excerpt; count on the stated rates, not on these rows.
